High-throughput results: PubChem BioAssay, National Center for Advancing Translational Sciences (NCATS)
KAT2A inh: qHTS Assay for Inhibitors of GCN5L2 | Histone acetyltransferase KAT2A (Homo sapiens), Q92830 | GCN5L2 HAT assay, ThioGlo1 CoA-SH fluorescence | Potency, µM (titrated, usually from 58.9 µM), inactives show at the highest dose activity change, negative = inhibition, usual class: inhibitors | hit rate 0.21% among 390,000 | AID 504327, 2011; active = well fitted inhibition curve with a large enough effect; inconclusive = small, poorly fitted or top-dose-only effect, or another doubt; inactive = no such curve, though single readings can be large or run the other way
Target sequence (Q92830 whole entry, looked up): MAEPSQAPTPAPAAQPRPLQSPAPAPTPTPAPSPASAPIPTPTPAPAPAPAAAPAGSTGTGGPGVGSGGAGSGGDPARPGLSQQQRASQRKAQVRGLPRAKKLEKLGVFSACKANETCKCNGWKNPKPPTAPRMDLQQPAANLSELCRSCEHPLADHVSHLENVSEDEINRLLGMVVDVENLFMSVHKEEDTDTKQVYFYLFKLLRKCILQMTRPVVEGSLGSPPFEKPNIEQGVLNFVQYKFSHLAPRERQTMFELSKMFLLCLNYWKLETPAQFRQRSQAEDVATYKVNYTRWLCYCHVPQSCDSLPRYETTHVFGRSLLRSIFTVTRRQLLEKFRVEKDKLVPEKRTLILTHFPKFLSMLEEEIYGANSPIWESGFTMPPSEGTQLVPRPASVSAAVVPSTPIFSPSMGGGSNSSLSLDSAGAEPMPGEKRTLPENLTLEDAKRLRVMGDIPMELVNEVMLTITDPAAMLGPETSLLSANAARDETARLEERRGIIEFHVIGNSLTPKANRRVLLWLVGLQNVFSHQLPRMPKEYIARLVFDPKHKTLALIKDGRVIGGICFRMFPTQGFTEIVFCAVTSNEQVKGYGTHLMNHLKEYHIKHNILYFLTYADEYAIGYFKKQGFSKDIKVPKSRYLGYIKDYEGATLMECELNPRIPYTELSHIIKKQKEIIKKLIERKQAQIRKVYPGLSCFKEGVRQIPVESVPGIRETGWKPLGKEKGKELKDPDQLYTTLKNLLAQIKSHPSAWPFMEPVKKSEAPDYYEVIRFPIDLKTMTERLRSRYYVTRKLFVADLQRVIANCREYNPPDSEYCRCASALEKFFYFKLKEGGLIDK
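Titration-based screen in which CoA formation is detected via maleimide probe ThioGlo1 (50uM) turning fluorescent on thiol reaction; substrates H3(1-25) 75uM and acetyl-CoA 70uM, GCN5L2 20nM, 20 min incubation at room temperature.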
Active calls of the source: *; ? = inconclusive; & = joins results of further samples; [ ] = dose if it differs, or a comment. % is set by controls: 0 for no effect and ±100 for the full control effect; potency is the fitted concentration of half-maximal effect. A portion of the library, and most or all hits are left out here.

SMILES | KAT2A inh
CCCC[n+]1ccn(C2=C([O-])c3ccccc3C(=O)/C2=N\S(=O)(=O)c2ccc(Br)cc2)c1 | -9%
COC(=O)NCC(c1cccnc1)N1CCOCC1 (stereo unspecified) | 2%
CCN1CCN(CC(O)COC(C)C)CC1 (stereo unspecified) | -16%
OCC1(Cc2ccc(F)cc2)CCCN(CCc2ccccc2)C1 (stereo unspecified) | -5%
Cc1cc(=O)n2nc(N3CCC(C(=O)NCc4ccccc4Cl)CC3)sc2n1 | -8%&-6%
CC1CCC2(CC1)NC(=O)N(Cc1cc(=O)n3ccsc3n1)C2=O (stereo unspecified) | ?
CC(C)NC[C@@H](O)c1ccc(O)c(O)c1 | -2%&-6%
CC(=O)N1c2ccc(S(=O)(=O)NCCC(=O)NC3CCCCCC3)cc2CC1C (stereo unspecified) | -16%
O=c1nc2n(c3cccc(Cl)c13)CCCCC2 | -5%
O=C(Cn1nc2sc3ccccc3n2c(=O)c1=O)c1cccs1 | 1%
O=C(NCCO)c1cccc(S(=O)(=O)N2CCCCC2)c1 | -8%
CC(CNC(=O)CCCn1ncn2c(cc3occc32)c1=O)c1ccccc1 (stereo unspecified) | -17%
CCOc1ccc(CNC(=O)C2CCCN(S(=O)(=O)c3ccc4c(ccn4C)c3)C2)cc1 (stereo unspecified) | 21%
CC(=O)[C@H]1CC[C@H]2[C@@H]3CC=C4C[C@@H](O)CC[C@]4(C)[C@H]3CC[C@]12C | -1%
O=C(CSc1ccc(-c2ccccc2)nn1)N1CCOCC1 | 1%
c1ccc(Cc2noc(CN3CCCC(CN4CCOCC4)C3)n2)cc1 (stereo unspecified) | -4%
O=C(NCC(c1cccnc1)N1CCN(c2ccc(F)cc2)CC1)c1ccccc1 (stereo unspecified) | -1%
C/C=C/C(=O)Nc1cccc(C2=NOC3(C2)C[C@@H](C(N)=O)N(C(=O)/C(C)=C/C)C3)c1 (stereo partly specified) | 1%
O=C(CC1CCCCC1)NC1CCCC1 | -4%
O=S(=O)(c1ccc(Br)cc1)n1c(Cc2ccccc2)nc2ccccc21 | -4%
Cc1cc(C(=O)OCC(=O)N2CCC(C)CC2)c2ccccc2n1 | 0%
O=C(N/N=C/c1cccc2ccccc12)c1cc2ccccc2o1 | ?
CCc1ccc(Oc2coc3cc(OCC(=O)Nc4cc(C)ccc4C)ccc3c2=O)cc1 | -2%
O=C(N/C(=C\c1ccccc1)C(=O)N1CCOCC1)c1cccc(Br)c1 | -4%
COc1ccccc1NC(=O)Cn1c(=O)n(-c2ccccc2)c(=O)c2oc3ccccc3c21 | -2%
c1cnc2c(SCc3ccc(-c4nnco4)cc3)cccc2c1 | -2%
CN(C)S(=O)(=O)c1cccc(NC(=O)COc2nc3ccccc3nc2N2CCOCC2)c1 | -5%
Cc1ccc(CN(C(=O)COc2cccc(C)c2C)C2CCS(=O)(=O)C2)o1 (stereo unspecified) | -1%
COc1cc(C=O)ccc1OCC(=O)Nc1ccc2c(c1)OCO2 | -5%
N#CC(C#N)=CN=c1ccn(Cc2ccc(Cl)cc2Cl)cc1 | -18%
O=C(NNC(=O)c1ccco1)c1cccc(Br)c1 | -4%
Cc1ccc(NC(=O)CN(C)C(=O)Cn2cc(C(F)(F)F)cc(Cl)c2=O)cc1 | -1%
CCCCn1c(N)c(N(CC(C)C)C(=O)c2oc3ccc(OCC)cc3c2C)c(=O)[nH]c1=O | -10%
COc1c(C)cc(C(=O)C2CCCN(C(=O)c3csc(C)n3)C2)cc1C (stereo unspecified) | 1%
C#C[C@]1(O)CC[C@H]2[C@@H]3CCc4cc(O)ccc4[C@H]3CC[C@@]21C | -2%&2%
Fc1ccc(C2=CC(c3ccco3)n3nnnc3N2)cc1 (stereo unspecified) | 8%
Cc1ccc(S(=O)(=O)Nc2c(C)n(C)n(-c3ccccc3)c2=O)cc1 | -15%&0%
Cc1cc(Oc2ccc(=O)n(C)n2)nc(Oc2ccc(=O)[nH]n2)n1 | -1%
COc1ccc(-c2nc3scc(CCNS(=O)(=O)c4cccc(C(C)=O)c4)n3n2)cc1 | -9%
COc1ccc(OC)c(Nc2nc(-c3sc(NC(=O)C(C)(C)C)nc3C)cs2)c1 | -8%
Cc1c(NS(=O)(=O)c2cccc(C(=O)Nc3ccccc3)c2)c(=O)n(-c2ccccc2)n1C | -1%
CCOc1ccc2c(c1)c(=O)c(C(=O)c1ccc3c(c1)OCO3)cn2Cc1ccc(F)cc1 | -6%
O=C(Nc1nc2nccc(-c3ccccc3)n2n1)C(Cl)(Cl)Cl | -1%
Cc1cccc(OCC(=O)Nc2cc(NC(=O)COc3cccc(C)c3)cc(C(=O)O)c2)c1 | -14%
CCOc1ccc(-c2cc3c(=O)n(CC(=O)NCc4ccc(C)cc4)ccn3n2)cc1 | 7%
CCC1Oc2ccccc2N(CC(=O)NCc2ccccc2)C1=O (stereo unspecified) | -4%
CCC(C)NC(=O)c1ccc2c(c1)sc1nc(-c3ccc(OC)cc3)cn12 (stereo unspecified) | -6%
CC1(C)Cc2ccccc2-c2nc3n(c(=O)c21)CCS3 | -4%
O=C1CC(c2ccccc2)CC2=C1C=Nc1ccccc1N2 (stereo unspecified) | 0%
Cc1ccnn1CC(=O)N/N=C/c1cccs1 | -2%

The list continues.
SMILES | KAT2A inh
NC(=O)c1cnccn1 | -3%&1%
CC(=O)Oc1ccc2oc(/C=C/N(C)C)c([N+](=O)[O-])c2c1 | -13%
CC1(C)Cc2c(cnn2-c2cccc(F)c2)C(NC(=O)CCc2cnccn2)C1 (stereo unspecified) | -3%
CN1CCN(S(=O)(=O)c2ccc3c(c2)NC(=O)CS3)CC1 | 0%
Cc1cccc(CCNC(=O)CC2C(=O)NCCN2Cc2ccc(F)c(F)c2)n1 (stereo unspecified) | ?
CCCCC(=O)Nc1nnc(SCC(=O)N2CCN(c3ccccc3OC)CC2)s1 | -4%
CCCC(=O)Nc1ccc(Cl)c(NC(=O)c2ccco2)c1 | -4%
O=C(O)CN1C(=O)c2ccc(Oc3cccc4c3C(=O)N(CC(=O)O)C4=O)cc2C1=O | -9%
NC(=O)C1CCN(C(=O)c2cc3ccccn3n2)CC1 | -6%
COc1ccc(-c2cc(C(F)(F)F)nc(SCC(=O)N3CCCCC3)n2)cc1OC | -3%
CCNC(=O)NCCNC(=O)c1cc(OCC(F)(F)F)ccc1OCC(F)(F)F | -5%
CC(C)(C)c1ccccc1OCC(=O)Nc1ncn[nH]1 | -21%
CCOC(=O)c1oc2c(c1C)-c1nn(Cc3ccccc3Cl)cc1CC2 | -8%
COc1cc(O)c(C(CC(=O)N2CCOCC2)c2ccc(N(C)C)cc2)c(OC)c1 (stereo unspecified) | -27%
Cc1nnc(NC(=O)c2ccncc2)s1 | 0%
OC(CCc1ccncc1)COc1ccccc1 (stereo unspecified) | -1%
O=C1C(=O)N(Cc2cccnc2)C(c2cccc([N+](=O)[O-])c2)/C1=C(\O)c1ccc2c(c1)OCCO2 (stereo unspecified) | -20%
C[C@]12C=CC(=O)C=C1CC[C@@H]1[C@@H]2[C@@H](O)C[C@@]2(C)[C@H]1CC[C@]2(O)C(=O)CO | 2%
COc1ccc(-n2nnnc2/C=C\Nc2ccc(C)cc2)cc1 | 2%
O=C(CSc1nc2c(sc3ccccc32)c(=O)n1-c1ccccc1)NCc1ccco1 | -7%
COc1cc(/C=N/NC(=O)c2cccnc2)ccc1OS(=O)(=O)c1ccc(C)cc1 | 2%
COc1ccc(S(=O)(=O)N2CCCC(C(=O)N3CCOCC3)C2)cc1C (stereo unspecified) | -5%
COc1cccc(NC(=O)CCc2nnc3n(CC(C)C)c(=O)c4ccccc4n23)c1 | -5%
O=C(COc1ccccc1)N1CCN(C(=O)COc2ccccc2)CC1 | -7%
O=C(NN1C(=O)c2cc(Br)ccc2NC1c1ccccc1Cl)c1ccncc1 (stereo unspecified) | -3%
CCc1ccc(C(=O)NNC(=O)C2CCN(c3ncnc4sc(C)c(C)c34)CC2)cc1 | -5%
CCCCCSc1ncccc1C(=O)O | -2%
CN(C)S(=O)(=O)c1ccc(NC(=O)c2c(F)cccc2Cl)cc1 | 78%[activator]
Cc1nc2ccc(NC(=O)c3ccc(Cl)nc3)cc2s1 | 2%
Cc1cc(C(=O)Nc2c(C)n(C)n(-c3ccccc3)c2=O)c(C)o1 | 0%
O=c1c2ccccc2c(-c2ccc(Cl)cc2)nn1-c1ccccc1 | -2%
CCOC(=O)C1CCN(C(=O)C2CCC(=O)N(CC3CCCCC3)C2)CC1 (stereo unspecified) | -20%
O=c1ccc2ccccc2o1 | -4%&-9%&-3%
Cc1nc(-c2ccc(NC(=O)c3ccc(Br)o3)cc2)cs1 | -11%
C/C(=N\O)c1ccc2c3ccccc3n(C)c2c1 | -5%
O=C(Nc1ncc(Cc2ccc(C(F)(F)F)cc2)s1)c1ccc(-c2cccc([N+](=O)[O-])c2)o1 | -9%
O=c1[nH]c(NCc2ccccc2)nc2c1CCC2 | -4%
CCOC(=O)c1c(C)nc(-c2ccccc2)nc1NC(C)=O | -1%
O=C(CN(C(=O)CSc1nc2ccccc2o1)c1ccccc1)NC1CCCCC1 | -13%
Cc1cccc(OCC(O)CN2CCN(C3CCCCC3)CC2)c1 (stereo unspecified) | -6%
N#CCSCC(=O)Nc1ccc(Br)cc1 | -10%
COc1ccc(C=O)cc1Cn1cnc2c(cnn2C)c1=O | -2%
COc1cccc(C(=O)C2CCCN(C(=O)c3ccccc3Cl)C2)c1 (stereo unspecified) | -2%
Cc1ccc(C(=O)N/C(=C/c2ccco2)C(=O)N2CCCCC2)cc1 | -29%
Cc1cc(C)n(-c2ccc(C(=O)NC3CCCCC3)cc2)n1 | -6%
O=C(Nc1ccc(N2CCOCC2)cc1N1CCOCC1)c1ccccc1 | -7%
Cc1cccc(N2C(=O)CC(SC(N)=Nc3ccccc3)C2=O)c1 (stereo unspecified) | -2%
Cc1cc(C)cc(NC(=O)CCc2c(C)nn(-c3ccc(N4CCOCC4)nn3)c2C)c1 | -9%
Cc1ccc2c(c1)N(C(=O)Nc1cccc(C)c1C)CCO2 | 0%
CC(=O)N1CCN(C(=O)c2ccc(NS(=O)(=O)c3ccc4c(c3)OCCO4)cc2)CC1 | 1%

Next section
SMILES | KAT2A inh
O=C(NNC(=O)c1ccco1)Nc1ccccc1 | 1%
CCC(=O)Nc1ccc(-c2ccc(N3CCC(C)CC3)nn2)cc1 | -4%
O=C(Cc1ccc(-c2ccccc2)cc1)NC1CCCC1 | 0%
O=C(Nc1nc(-c2cc(Cl)sc2Cl)cs1)c1cccs1 | -12%
CC1(C)CC2C1CCC1(O)CC2(C)CCC1N(O)c1ccc(C(=O)NCCO)cn1 (stereo unspecified) | -7%
COc1ccc(Cl)cc1C(=O)NNC(=O)CSc1nnc2ccccn12 | 2%
COc1cccc(CNc2nc3nc(C)cc(=O)n3[nH]2)c1 | -1%
CCCCC(=O)N=c1sc2cc(S(C)(=O)=O)ccc2n1C | -4%
Cc1cc(Cl)c(OCCCSc2nc(C)cc(=O)[nH]2)c(Br)c1 | -7%
Cc1ccc(C(=O)N2CCC(C)CC2)cc1NC(=O)c1nsc2ccccc12 | -10%

Nothing new here: entries from further up.
SMILES | KAT2A inh
O=C(CN(C(=O)CSc1nc2ccccc2o1)c1ccccc1)NC1CCCCC1 | -13%
Cc1cccc(OCC(O)CN2CCN(C3CCCCC3)CC2)c1 (stereo unspecified) | -6%
N#CCSCC(=O)Nc1ccc(Br)cc1 | -10%
COc1ccc(C=O)cc1Cn1cnc2c(cnn2C)c1=O | -2%
COc1cccc(C(=O)C2CCCN(C(=O)c3ccccc3Cl)C2)c1 (stereo unspecified) | -2%
Cc1ccc(C(=O)N/C(=C/c2ccco2)C(=O)N2CCCCC2)cc1 | -29%
Cc1cc(C)n(-c2ccc(C(=O)NC3CCCCC3)cc2)n1 | -6%
O=C(Nc1ccc(N2CCOCC2)cc1N1CCOCC1)c1ccccc1 | -7%
Cc1cccc(N2C(=O)CC(SC(N)=Nc3ccccc3)C2=O)c1 (stereo unspecified) | -2%
Cc1cc(C)cc(NC(=O)CCc2c(C)nn(-c3ccc(N4CCOCC4)nn3)c2C)c1 | -9%
Cc1ccc2c(c1)N(C(=O)Nc1cccc(C)c1C)CCO2 | 0%
CC(=O)N1CCN(C(=O)c2ccc(NS(=O)(=O)c3ccc4c(c3)OCCO4)cc2)CC1 | 1%
O=C(NNC(=O)c1ccco1)Nc1ccccc1 | 1%
CCC(=O)Nc1ccc(-c2ccc(N3CCC(C)CC3)nn2)cc1 | -4%
O=C(Cc1ccc(-c2ccccc2)cc1)NC1CCCC1 | 0%
O=C(Nc1nc(-c2cc(Cl)sc2Cl)cs1)c1cccs1 | -12%
CC1(C)CC2C1CCC1(O)CC2(C)CCC1N(O)c1ccc(C(=O)NCCO)cn1 (stereo unspecified) | -7%
COc1ccc(Cl)cc1C(=O)NNC(=O)CSc1nnc2ccccn12 | 2%
COc1cccc(CNc2nc3nc(C)cc(=O)n3[nH]2)c1 | -1%

Next section
SMILES | KAT2A inh
CN(Cc1ccccc1)C(=O)CSc1nc2ccccc2c(=O)n1Cc1ccco1 | -6%
CCC(CC)C(=O)Nc1nnc(S(=O)(=O)N2c3ccccc3CC2C)s1 (stereo unspecified) | -1%&-4%
CCOC(=O)CSc1cc(=O)n(CC)c2ccccc12 | -6%
O=C(NCc1cccc(C(F)(F)F)c1)C1CC(c2ccccc2C(F)(F)F)=NO1 (stereo unspecified) | 2%
COc1ccc(OC)c2c(C)cc(N3CCN(C(=O)c4ccc(Cl)cc4)CC3)nc12 | -8%
Cc1ccc(C2=NOC(C)(c3nnc(-c4ccc(Cl)cc4)o3)C2)cc1 (stereo unspecified) | 1%
COc1ccc(OC)c(CC(=O)Nc2cc(S(=O)(=O)N3CCCCC3)ccc2C)c1 | -1%
CCOC(=O)c1ccc(NC(=O)N2CCOc3ccccc32)cc1 | -6%
